Ecoli rRNA inh: inhibits bacterial ribosomal RNA function over humanized ribosomes; E. coli WT GFP vs humanized-ribosome RFP mutants, fluorescence, 24 h; active compounds read low; DMSO median 0, no signal -100; GFP signal change (wild-type ribosome), % (no concentration beside the values); 1.6% of 350,000 active;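 active = significant combined selectivity score with lowered wild-type GFP, culture density cut under 30%, mutant RFP and density less affected; inactive = any of these conditions unmet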; also: one replicate is shown; some compounds called inactive have numbers as strong as hits
MLL AF4-AF9 inh: MLL-AF4/AF9 protein interaction inhibition; 0.47% of 350,000 active; inhibition, % at 10 µM; AlphaScreen, biotin-AF4 peptide binding to FLAG-AF9; P42568;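 active = every replicate reaching a set inhibition limit, whatever the replicate mean, cut at about 25% in these data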;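 also: 0% = plate neutral control median and 100% = total signal loss; the record names both 10 and 1 µM as test concentration; the first replicate is given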
Target sequence (P42568 whole entry, looked up): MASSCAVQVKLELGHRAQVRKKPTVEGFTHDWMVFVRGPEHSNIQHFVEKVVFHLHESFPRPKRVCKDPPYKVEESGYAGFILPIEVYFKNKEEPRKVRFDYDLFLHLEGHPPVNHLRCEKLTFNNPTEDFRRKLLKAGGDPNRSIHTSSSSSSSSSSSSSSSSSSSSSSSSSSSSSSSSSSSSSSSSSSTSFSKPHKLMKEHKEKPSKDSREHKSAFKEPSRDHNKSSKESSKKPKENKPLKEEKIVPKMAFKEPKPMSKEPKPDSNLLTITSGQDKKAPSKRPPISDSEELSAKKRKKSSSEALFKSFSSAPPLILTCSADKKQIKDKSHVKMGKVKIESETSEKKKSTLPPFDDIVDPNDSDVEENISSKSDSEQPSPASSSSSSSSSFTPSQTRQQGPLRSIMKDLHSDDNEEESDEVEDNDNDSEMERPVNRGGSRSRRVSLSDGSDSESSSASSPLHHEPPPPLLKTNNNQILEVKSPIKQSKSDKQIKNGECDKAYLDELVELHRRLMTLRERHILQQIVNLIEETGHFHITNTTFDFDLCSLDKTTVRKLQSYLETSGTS
FGF22 binding: binders of recombinant human FGF22 by thermal shift. AID 651658. Q9HCT0. calls only at 9.99 µM. SYPRO orange fluorescence; percent of sucrose octasulfate shift, DMSO zero. 1.5% of 340,000 active;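 active = melting point raised past a set limit in the mean and every replicate; three in four hits are not shown here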
Target sequence (Q9HCT0 whole entry, looked up): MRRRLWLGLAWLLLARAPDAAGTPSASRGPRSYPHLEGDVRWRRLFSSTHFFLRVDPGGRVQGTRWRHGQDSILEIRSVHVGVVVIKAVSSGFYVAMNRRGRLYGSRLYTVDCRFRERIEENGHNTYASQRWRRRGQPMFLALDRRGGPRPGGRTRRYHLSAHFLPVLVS
Ecoli rRNA inh OD600: also measured in Ecoli rRNA inh; calls as there; OD600 change, %; measured here: OD600 growth;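 optical density of the mix in the first replicate; 0 = DMSO median and -100 = no signal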
Ecoli rRNA inh RFP: further read-out of Ecoli rRNA inh, marked with its call; RFP signal change, %; measured here: RFP humanized mutant strains;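 first replicate; 0 = DMSO median and -100 = no signal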
The depositor's hits bear a star; i = inactive; nt = not tested or not shown. Not all compounds are listed, so the mix of outcomes need not match the whole.

SMILES	Ecoli rRNA inh	Ecoli rRNA inh OD600	Ecoli rRNA inh RFP	MLL AF4-AF9 inh	FGF22 binding
C[C@@H]1CN([C@@H](C)CO)C(=O)c2cc(-c3cccc(C#N)c3)cnc2O[C@H]1CN(C)C(=O)C1CCOCC1	1	-3	-1.1	-1.2	i
CN1C(=O)c2cc(NS(=O)(=O)c3cccc(F)c3)ccc2OC[C@H]2O[C@H](CC(=O)O)CC[C@H]21	-2	-4	-5.4	-4.7	i
C[C@H]1CCCCO[C@H](CN(C)Cc2ccc(C(=O)O)cc2)[C@@H](C)CN([C@@H](C)CO)C(=O)c2cc(NC(=O)Nc3ccc(C(F)(F)F)cc3)ccc2O1	1	3	5.2	1.2	i
O=C(C[C@H]1CC[C@@H](NC(=O)C2CC2)[C@@H](CO)O1)NCC1CC1	0	1	-2.7	-1.7	i
C[C@@H]1CN([C@@H](C)CO)C(=O)c2cc(NC(=O)Cc3cn(C)c4ccccc34)ccc2O[C@@H]1CN(C)Cc1ccc2c(c1)OCO2	-2	-4	7.4	14	i
C[C@H](CO)N1C[C@H](C)[C@@H](CN(C)S(=O)(=O)c2ccccc2)Oc2c(NS(=O)(=O)c3cn(C)cn3)cccc2C1=O	2	1	-2.6	-2.4	i
CCCNC(=O)[C@H]1[C@H](CO)[C@H]2Cn3c(ccc(/C=C/c4ccccc4)c3=O)[C@@H]1N2C(=O)c1ccncc1	-4	14	-2.4	-3.1	i
COc1ccc(S(=O)(=O)Nc2ccc3c(c2)CC(=O)N([C@H](C)CO)C[C@H](C)[C@H](CN(C)S(=O)(=O)c2c(C)noc2C)O3)cc1	-1	-8	0.9	5.6	i
CC(=O)Nc1ccc(-c2ccnc3c2CC(C)(C(=O)NCCc2ccccc2)O3)cc1 (configuration not stated)	-58	-75	-30	-2.3	i
O=C(c1cc(C2CCCCN2S(=O)(=O)c2cccs2)on1)N1CCOCC1 (configuration not stated)	1	-12	-10	-5.6	i
C[C@H](CO)N1C[C@H](C)[C@@H](CN(C)Cc2ccncc2)Oc2ccc(NC(=O)c3ccncc3)cc2C1=O	3	6	-1.2	-0.8	i
C[C@@H]1CN([C@@H](C)CO)C(=O)c2cc(NC(=O)C3CC3)ccc2O[C@@H]1CN(C)CC1CCCCC1	5	11	0.4	-1.1	i
COC(=O)C[C@H]1C=C[C@H](NC(=O)Nc2ccc(C(F)(F)F)cc2)[C@H](CO)O1	-7	-6	0.0	-0.3	i
C[C@H](O)C#Cc1ccc2c(c1)O[C@@H](CN(C)Cc1ccccc1)[C@@H](C)CN([C@@H](C)CO)S2(=O)=O	-1	-8	-2.9	-1.3	i
C[C@@H]1CN([C@H](C)CO)S(=O)(=O)c2ccc(C#Cc3ccc(F)cc3)cc2O[C@H]1CN(C)C(=O)c1ccccn1	-9	-58	20	0.3	i
O=C(NCc1ccccc1)c1cc(C2CCCCN2S(=O)(=O)Cc2ccccc2)on1 (configuration not stated)	8	-5	-9.4	-1.2	i
C[C@@H]1CN([C@@H](C)CO)C(=O)c2cc(N(C)C)ccc2O[C@@H]1CN(C)Cc1ccc(C(=O)O)cc1	4	7	1.7	-0.8	i
C[C@H]1CN([C@@H](C)CO)C(=O)c2cc(-c3cccc(C#N)c3)cnc2O[C@@H]1CN(C)C(=O)C1CCCCC1	-4	0	-0.9	-0.4	i
N#C[C@H]1[C@@H](c2ccc(C3=CCCC3)cc2)[C@H](CO)N1C(=O)Cc1ccncc1	-2	4	-2.2	-1.3	i
COCCNC(=O)C1(C)CCN(C(=O)c2ccc(C(F)(F)F)nc2C)C1 (configuration not stated)	8	8	10	-2.0	i
CCOc1ccc(S(=O)(=O)Nc2ccc(C(=O)N(CC)CC(=O)NCc3cccs3)cc2)cc1	-9	-12	9.3	-1.5	i
CCCNC(=O)C1(C)CCCN(Cc2c(C)nn(-c3ccccc3)c2C)C1 (configuration not stated)	16	18	3.0	-22	i
COc1ccc(C(N)c2csc(Nc3cc(Oc4ccccc4)ncn3)n2)cc1 (configuration not stated)	-32	-42	-11	16	i
CCCNC(=O)N1CC2(C1)[C@H](c1ccccc1)[C@H](CO)N2Cc1ccc(F)cc1	-2	-12	-0.4	-0.4	i
CC(C)NC(=O)N(C)C[C@H]1OCCCC[C@@H](C)Oc2ccc(NC(=O)Nc3ccccc3)cc2C(=O)N([C@H](C)CO)C[C@@H]1C	1	2	-4.4	-1.5	i

An excerpt of these results, bar-delimited:
SMILES | Ecoli rRNA inh | Ecoli rRNA inh OD600 | Ecoli rRNA inh RFP | MLL AF4-AF9 inh | FGF22 binding
O=C(C[C@H]1CC[C@@H](NC(=O)C2CC2)[C@@H](CO)O1)NCC1CC1 | 0 | 1 | -2.7 | -1.7 | i
C[C@@H]1CN([C@@H](C)CO)C(=O)c2cc(NC(=O)Cc3cn(C)c4ccccc34)ccc2O[C@@H]1CN(C)Cc1ccc2c(c1)OCO2 | -2 | -4 | 7.4 | 14 | i
C[C@H](CO)N1C[C@H](C)[C@@H](CN(C)S(=O)(=O)c2ccccc2)Oc2c(NS(=O)(=O)c3cn(C)cn3)cccc2C1=O | 2 | 1 | -2.6 | -2.4 | i
CCCNC(=O)[C@H]1[C@H](CO)[C@H]2Cn3c(ccc(/C=C/c4ccccc4)c3=O)[C@@H]1N2C(=O)c1ccncc1 | -4 | 14 | -2.4 | -3.1 | i

A different layout for 2 compounds above.
Sequence of screens – Ecoli rRNA inh | Ecoli rRNA inh OD600 | Ecoli rRNA inh RFP | MLL AF4-AF9 inh | FGF22 binding
CN1C(=O)c2cc(NS(=O)(=O)c3cccc(F)c3)ccc2OC[C@H]2O[C@H](CC(=O)O)CC[C@H]21
 : -2 | -4 | -5.4 | -4.7 | i
C[C@H]1CCCCO[C@H](CN(C)Cc2ccc(C(=O)O)cc2)[C@@H](C)CN([C@@H](C)CO)C(=O)c2cc(NC(=O)Nc3ccc(C(F)(F)F)cc3)ccc2O1
 : 1 | 3 | 5.2 | 1.2 | i

(more compounds)
SMILES	Ecoli rRNA inh	Ecoli rRNA inh OD600	Ecoli rRNA inh RFP	MLL AF4-AF9 inh	FGF22 binding
CC(C)C[C@H]1CNC(=O)C(=O)N1C[C@@H]1CCCN1C[C@H](Cc1ccccc1)N1C[C@H](Cc2ccccc2)N(CCc2ccccc2)C(=O)C1=O	19	12	2.1	1.2	i
O=C(C[C@H]1CC[C@H]2[C@@H](COC[C@@H](O)CN2S(=O)(=O)c2ccccc2)O1)NCCN1CCCC1	5	21	-5.4	0.2	i
Cc1ccc(S(=O)(=O)N2C[C@@H]3CCCC[C@@H]3[C@@H](C)[C@H]2c2cn(Cc3ccccc3)c3ccccc23)cc1	4	21	-4.3	-3.7	i
O=C(C1CC1)N1CC2(C1)[C@H](c1ccccc1)[C@@H](CO)N2Cc1nccs1	1	7	-1.4	-2.5	i
C[C@@H]1CN([C@@H](C)CO)S(=O)(=O)c2ccc(C#C[C@@H](C)O)cc2O[C@H]1CN(C)C(=O)Cc1ccccn1	1	-1	-0.7	-3.2	i
CCCNC(=O)N1CC2(CN(CC3CCOCC3)C2)c2c(n(C)c3cc(OC)ccc23)[C@H]1CO	1	8	-0.9	0.2	i
CCCCn1nnnc1C(c1ccccc1)N1CCN(c2ccc(F)cc2)CC1 (configuration not stated)	-19	-26	-7.2	0.2	i
O=C(Nc1ccc(F)cc1)C(c1ccncc1)N1CCN(C(=O)c2ccco2)CC1 (configuration not stated)	15	14	2.3	-6.5	i
O=C(Cn1cc(COc2cccc([N+](=O)[O-])c2)nn1)c1ccc(O)cc1	-4	4	6.4	-2.7	i
CO[C@H]1CN(C)C(=O)c2cc(NS(=O)(=O)Cc3ccccc3)ccc2OC[C@H](C)NC[C@H]1C	1	4	0.9	1.9	i
O=C(Cc1cccnc1)N[C@@H]1CC[C@@H](CCNS(=O)(=O)c2ccccc2Cl)O[C@@H]1CO	0	-4	-1.4	-2.1	i
CCCNC(=O)C[C@@H]1CC[C@@H]2[C@H](COc3ccc(NC(=O)c4cccs4)cc3C(=O)N2C)O1	-1	-8	0.9	0.5	i
COc1ccc(NC(=O)N(C)C[C@@H]2OCc3ccccc3-c3c(n(C)c4ccccc34)C(=O)N([C@@H](C)CO)C[C@@H]2C)cc1	2	-2	1.7	2.8	i
O=C(C[C@H]1C[C@H]2c3cc(NC(=O)Nc4ccccc4)ccc3O[C@H]2[C@H](CO)O1)NCc1cccc(F)c1	0	-4	0.8	-1.7	i
CO[C@@H]1CN(C)C(=O)c2cc(NC(=O)Nc3cccc(F)c3)ccc2OC[C@H](C)N(C)C[C@H]1C	-4	-4	1.6	4.8	i
CCCNC(=O)C[C@@H]1CC[C@@H]2[C@H](COC[C@H](O)CN2C(=O)Nc2c(C)noc2C)O1	-1	-4	1.2	-1.1	i
C[C@@H]1CN([C@H](C)CO)C(=O)c2cc(NC(=O)Nc3ccc(F)cc3)ccc2O[C@H]1CN(C)Cc1ccc2c(c1)OCO2	-7	-23	7.2	0.9	i
CC(C)N(Cc1ccccc1)C(=O)COC(=O)CCC(=O)c1ccc(F)cc1	-4	-16	2.6	3.6	i
NC(=S)NN=Cc1nccc2ccccc12	0	-9	-1.2	9.2	i
C[C@H](CO)N1C[C@H](C)[C@@H](CN(C)C(=O)Cc2ccccc2)OCCCC[C@H](C)Oc2ccc(NC(=O)Nc3ccc(F)cc3)cc2C1=O	-1	-1	5.0	-0.7	i
CC(C)NC(=O)N(C)C[C@H]1Oc2ccc(NC(=O)c3ccncc3)cc2CC(=O)N([C@@H](C)CO)C[C@@H]1C	6	13	-0.5	-0.5	i
C[C@H](CO)N1C[C@H](C)[C@H](CN(C)C(=O)Nc2ccccc2)Oc2ncc(-c3ccc(C#N)cc3)cc2C1=O	-13	-4	0.1	-1.1	i
COc1cccc(-c2cnc3c(NC=O)cc(-c4ccccc4Oc4ccccc4)cn23)c1	0	15	1.3	2.0	i
CN1C(=O)c2cc(NC(=O)c3cccs3)ccc2OC[C@@H]2O[C@@H](CC(=O)N3CCCCC3)CC[C@@H]21	-4	-6	-0.9	0.2	i
COC(=O)Cc1nnn2c1[C@H](C)[C@@H](OC)c1cc(Br)ccc1-2	3	6	1.7	-0.6	nt

(more compounds)
SMILES	Ecoli rRNA inh	Ecoli rRNA inh OD600	Ecoli rRNA inh RFP	MLL AF4-AF9 inh	FGF22 binding
N#C[C@H]1[C@H](c2ccccc2C2=CCCC2)[C@@H](CO)N1C(=O)C1CC1	-4	-4	1.5	-0.1	i
CN(CC(=O)Nc1ccc(F)cc1)C(=O)COC(=O)c1nc(Cl)ccc1Cl	5	6	2.4	-1.2	i
C[C@@H]1CN([C@@H](C)CO)C(=O)c2cc(-c3ccc(C(=O)N(C)C)cc3)cnc2O[C@@H]1CN(C)Cc1ccc(C(=O)O)cc1	8	11	-3.0	-12	i
C[C@@H]1CN([C@@H](C)CO)C(=O)c2cc(NC(=O)C3CC3)ccc2O[C@H]1CN(C)C(=O)Nc1cccc2ccccc12	1	5	-2.1	-2.8	i
C[C@@H]1CCCCO[C@H](CN(C)C(=O)Nc2ccc(F)cc2)[C@H](C)CN([C@@H](C)CO)C(=O)c2cc(NS(=O)(=O)c3cn(C)cn3)ccc2O1	-2	-1	-1.0	-3.6	i
C[C@H]1CN([C@@H](C)CO)C(=O)c2cccc(NS(=O)(=O)c3cccs3)c2O[C@@H]1CN(C)Cc1ccc(C(=O)O)cc1	0	5	1.0	-6.2	i
CN(C)CC1CCC/C(=C\c2ccc(OC(=O)/C=C/c3ccccc3)cc2)C1=O (configuration not stated)	2	19	10	1.1	i
CO[C@H]1CN(C)C(=O)c2cc(NS(=O)(=O)c3ccccc3)ccc2OC[C@H](C)N(C)C[C@H]1C	1	5	0.7	0.8	i
O=C(C[C@H]1CC[C@H](NC(=O)C2CC2)[C@@H](CO)O1)NCc1ccccc1Cl	1	5	-3.0	-0.5	i
C[C@@H]1CCCCO[C@H](CN(C)Cc2ccncc2)[C@H](C)CN([C@@H](C)CO)C(=O)c2cc(NS(=O)(=O)c3ccccc3)ccc2O1	-4	-1	0.1	-7.3	i
C[C@@H]1CCCCO[C@H](CN(C)S(=O)(=O)c2ccc(Cl)cc2)[C@@H](C)CN([C@@H](C)CO)C(=O)c2cc(NS(=O)(=O)c3cn(C)cn3)ccc2O1	0	-13	1.3	2.7	i
COc1cccc(C(CNc2ccc(S(=O)(=O)N3CCN(C)CC3)cc2[N+](=O)[O-])N(C)C)c1 (configuration not stated)	4	12	0.1	18	i
O=C(N[C@H]1CC[C@@H](CCn2cc(-c3ccccc3)nn2)O[C@@H]1CO)c1cnccn1	3	6	-1.2	-1.5	i
Cc1ccc(S(=O)(=O)Nc2ccccc2C=NNC(=O)c2ccncc2)cc1	-11	-1	5.8	4.4	i
CS(=O)(=O)N1[C@@H](C#N)[C@H](c2ccc(-c3ccccc3F)cc2)[C@@H]1CO	-3	-9	2.1	0.5	i
O=C(C[C@H]1CC[C@@H]2[C@H](COC[C@H](O)CN2C(=O)Cc2ccccc2)O1)NC1CCC1	4	13	-6.3	0.3	i
COCC#Cc1ccc([C@H]2[C@H]3CN(Cc4cncnc4)CCCCN3[C@H]2CO)cc1	4	4	-5.3	-2.0	i
O=C(c1cccnc1)N1CC2(C1)[C@@H](c1ccccc1)[C@@H](CO)N2CC1CC1	2	3	-0.4	-1.4	i

Some entries already given, reduced to FGF22 binding:
molecule	FGF22 binding
CO[C@H]1CN(C)C(=O)c2cc(NS(=O)(=O)c3ccccc3)ccc2OC[C@H](C)N(C)C[C@H]1C	i
O=C(C[C@H]1CC[C@H](NC(=O)C2CC2)[C@@H](CO)O1)NCc1ccccc1Cl	i
